Screens (PubChem)
GLA inh pH 4.5 – alpha-galactosidase A (human) inhibition, pH 4.5. purified enzyme, 4-MU-alpha-Gal fluorescence, pH 4.5. AID 1467. 230,000 tested, under 10 active. activity change, negative = inhibition, % at 105 µM; inconclusive = small, poorly fitted or top-dose-only inhibition, or a rising curve; inactive = flat fitted curve, though single readings scatter; no compound was filed as active;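 further: 0% = full activity with enzyme and -100% = basal without enzyme; dose as in the result columns while the protocol names 77 µM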
miR-21 reporter – miR-21 reporter, rising signal. 340,000 tested, under 10 active. Potency, µM (doses to about 38.3 µM), for inactives: at the highest dose reporter change, positive = more light. AID 2288. HeLa miR-21 FLuc reporter, luciferase, 48 h; active = well fitted rising curve with a large enough effect; inconclusive = small, poorly fitted or top-dose-only effect; inactive = no such curve, though single readings can be large or run the other way;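 further: % of control where 0% means no effect; miR-21 action dims this reporter so a rising signal means less miR-21 action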
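HeLa miR-21-FLuc reporter line, endogenous miR-21; 2000 cells/well in DMEM/10% FBS; compound titration up to ~40uM final, 48 h, 37 degree Celsius; luciferase detection reagent, 15 min lysis, CCD luminescence.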
Rango complex inh – inhibitors of Rango-importin beta complex formation. AID 540263. Potency, µM (series often up to 92.2 µM), for inactives: top-dose inhibition of complex formation. 340,000 compounds, 0.031% hits. Q14974. Rango CFP/YFP FRET sensor + importin beta, 45 min; active = rising FRET ratio curve, often small or poorly fitted; inconclusive = mostly compound fluorescence or quenching in the first reads; inactive = flat curves in all reads;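 further: potency means the concentration at half of the fitted maximal effect; 0% = DMSO wells and 100% = buffer wells lacking importin beta; nearly all actives have a fitted effect of over 15% in size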
Target sequence (Q14974 whole entry, looked up): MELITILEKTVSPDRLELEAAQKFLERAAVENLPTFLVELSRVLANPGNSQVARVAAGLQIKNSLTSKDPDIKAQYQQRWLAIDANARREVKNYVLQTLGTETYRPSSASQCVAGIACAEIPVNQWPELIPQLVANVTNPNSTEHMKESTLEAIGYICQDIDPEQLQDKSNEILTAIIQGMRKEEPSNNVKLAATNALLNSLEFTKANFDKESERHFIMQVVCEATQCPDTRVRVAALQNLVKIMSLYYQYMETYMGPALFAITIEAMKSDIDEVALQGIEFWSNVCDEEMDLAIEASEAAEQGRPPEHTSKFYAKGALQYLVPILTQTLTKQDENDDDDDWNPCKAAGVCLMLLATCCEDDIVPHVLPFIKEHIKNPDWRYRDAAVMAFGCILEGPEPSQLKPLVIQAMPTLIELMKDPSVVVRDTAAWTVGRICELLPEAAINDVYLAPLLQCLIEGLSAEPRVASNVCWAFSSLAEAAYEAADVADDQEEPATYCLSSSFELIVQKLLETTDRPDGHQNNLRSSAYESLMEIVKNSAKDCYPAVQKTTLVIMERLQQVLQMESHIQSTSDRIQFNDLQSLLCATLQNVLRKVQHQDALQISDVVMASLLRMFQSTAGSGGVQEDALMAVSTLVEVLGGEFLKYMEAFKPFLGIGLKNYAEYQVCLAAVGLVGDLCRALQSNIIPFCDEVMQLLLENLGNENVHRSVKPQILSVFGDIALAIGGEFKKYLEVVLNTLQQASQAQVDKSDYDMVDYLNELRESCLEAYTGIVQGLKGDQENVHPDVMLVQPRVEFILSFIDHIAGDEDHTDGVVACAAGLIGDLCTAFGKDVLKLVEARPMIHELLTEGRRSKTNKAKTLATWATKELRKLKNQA
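FRET biosensor (snurportin 1 IBB flanked by EYFP and cerulean), 50 nM, with compound 5 min, then 0.125 microM importin beta in PBS, 1 mM DTT, 0.02% Tween-20, 0.1% BSA. CFP/YFP ratio read after 45 min at room temperature; pre-read flags interference.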
Rango release inh – inhibitors of RanGTP-induced Rango-importin beta complex dissociation; Potency, µM (highest dose often 46.1 µM), inactives show at the highest dose activity change, negative = inhibition; O95149+P62826; Biochemical FRET Rango-importin beta, RanGTP-induced dissociation; 340,000 compounds, 0.071% hits; active means falling FRET ratio curve, often poorly fitted, with flat reads before Ran was added; inconclusive means other falling curves, or compound fluorescence or quenching; inactive means flat or rising ratio curve;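 further: potency means the concentration at half of the fitted maximal effect; % of control where 0% means no effect; nearly all actives have a fitted effect of over 45% in size; -100% = wells without RanGTP and RCC1; the record marks most hits as doubtful in a second field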
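Two FRET readings bracket the reaction: one 5 min after compound meets Rango–importin beta, another 45 min after RanGTP-RCC1 (0.6 uM Ran, 0.2 uM RCC1, 2 mM GTP) is added. Only the second defines inhibition.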
The depositor's hits bear a star; ? = inconclusive; nt = not tested or not shown; [ ] = another dose, or the depositor's remark. This is a subset; count on the stated rates, not on these rows.

GLA inh pH 4.5	miR-21 reporter	Rango complex inh	Rango release inh	SMILES
nt	0%	2.9%	7%	COc1ccc(/C(C)=N/NC(=O)c2ccncc2)cc1[N+](=O)[O-]
7	0%	-4.2%	14%	Cc1cccc(OCC(=O)Nc2ccc(N3CCN(S(C)(=O)=O)CC3)cc2)c1C
-26	-6%	0.5%	-4%	CSc1ccc(C#N)cc1NC(=O)c1cccc(Cl)c1
nt	nt	?	1%	CCCCn1c(N)c(N(CCOC)C(=O)CSCc2ccc(Cl)c(Cl)c2)c(=O)[nH]c1=O
1	1%	1.7%	?	Nc1cc(S(=O)(=O)Nc2ccccc2Cl)ccc1N1CCCC1
8	-9%	1.8%	1%	O=C1c2ccccc2NC(c2ccccn2)N1c1ccccc1F (centres undefined)
-12	6%	-5.2%	0%	CCN(CC)S(=O)(=O)c1cccc(NC(=O)CNC2CCCCCC2)c1
-10	-1%	?	?	Fc1ccc(-c2nc3cnccn3c2NC2CCCC2)cc1
2	-16%	-1.2%	-2%	O=C(/C=C/c1cccc(Cl)c1)NCCN1CCOCC1
4	-1%	-0.4%	-23%	O=C(OCc1nc2ccccc2[nH]1)C1CCCCC1
3	-11%	-4.1%	0%	CN(Cc1ccco1)C(=O)c1ccc(N2CCCC2=O)cc1
-5	20%	0.1%	-6%	OCc1ccnc2c(O)cccc12
nt	nt	-3.1%	?	CNc1nc(=O)n(C2CCCO2)cc1C (centres undefined)
4	-4%	-0.2%	-10%	O=C(CSc1c(F)c(F)cc(F)c1F)Nc1ccc(C2SCCS2)cc1
-4	2%	1.1%	1%	CC(C)OCCCNC(=O)c1ccc2c(=O)n(Cc3ccc4c(c3)OCO4)c(=S)[nH]c2c1
7	-5%	2.1%	-11%	CNC(=O)CCC(=O)Nc1ccc(C)cc1
nt	1%	4.5%	1%	CCOC(=O)c1c(-c2ccccc2)oc2ccc(OCC(=O)NN)cc12
1	-24%	0.2%	-15%	CN1CCN(c2ccc(C(=O)c3ccccc3)cc2[N+](=O)[O-])CC1
-3	11%	8.5%	-1%	C/C=C/c1ccc(OCCCNC2CCCC2)c(OC)c1
-3	-21%	-2.6%	3%	CCOc1ccc(N=C2NC(=O)C(CC(=O)O)S2)cc1 (centres undefined)

The list goes on.
GLA inh pH 4.5	miR-21 reporter	Rango complex inh	Rango release inh	SMILES
-5	0%	-1.1%	-16%	O=C(C1CCN(C2CC(=O)N(c3ccc(Cl)cc3)C2=O)CC1)N1CCOCC1 (centres undefined)
-4	0%	0.9%	2%	CCn1c(C(C)NC(=O)c2cccc(C)c2)nc2ccccc21 (centres undefined)
nt	4%	-3.4%	-2%	COC(=O)CCCC(=O)N1CCC(CCC(=O)NCc2ccc(F)cc2)CC1
-4	-5%	nt	nt	Cc1ccc(SCC(=O)NC(=O)NCc2ccco2)cc1C
-23	-3%	?	?	CC[C@H](C)/C=C(C)/C=C/C1=CC2=CC(=O)[C@]3(C)OC(=O)[C@@H](C(C)=O)[C@@H]3C2=CO1
nt	0%	-2.4%	-5%	CCOc1ccccc1NC(=S)NC(=O)C1CC1
3	-40%	?	-6%	COCc1cc(C)nc(SCC(=O)Nc2ccc(C)c(C)c2)c1C#N
-2	-4%	-3.5%	4%	CCCSC1=C(C#N)C(c2cc(OC)ccc2OC)CC(=O)N1 (centres undefined)
4	-9%	-1.5%	5%	COc1cc(C=Nc2cccc(C)c2)c(O)c([N+](=O)[O-])c1
nt	nt	-3.9%	-25%	CC(OC(=O)CCCN=C1NS(=O)(=O)c2ccccc21)C(=O)Nc1ccccc1F (centres undefined)
-12	-15%	0.1%	-8%	COc1ccc(C2CC(=O)N(CC(=O)NCC3CCCO3)c3ccccc3S2)cc1OC (centres undefined)
-1	27%	1.7%	16%	O=C1NC2c3ccccc3C(=O)N2c2c1cnn2-c1ccccc1 (centres undefined)
5	-1%	?	-17%	Cc1ccc(O)c(C(=O)c2cc(C#N)c(=O)n(Cc3ccccc3)c2)c1
-2	?	3.6%	-11%	Cc1ccc(NC(=O)c2cc(N3C(=O)C=CC3=O)ccc2N2CCOCC2)cc1
1[21.1 µM]	-34%	-2.0%	14%	Cc1ccc(O)c(NC(=O)c2noc3c2CCc2ccccc2-3)c1
-12	1%	1.2%	-12%	O=C1CCCC(O)=C1N=Nc1c(Cl)cc(C(F)(F)F)cc1Cl
-9	-20%	1.1%	1%	CCOc1ccc(OCc2ccc(C(=O)N(CC)CC)cc2)cc1
nt	nt	0.4%	-5%	CC(C)Oc1ccc(S(=O)(=O)N2CCOCC2)cc1NC(=O)Cc1c(F)cccc1Cl
-5	25%	-5.6%	4%	N#CC1=C(SCC(=O)NC23CC4CC(CC(C4)C2)C3)NC(=O)C(C#N)C12CCCCC2 (centres undefined)
nt	nt	-1.2%	1%	CC(C)C[C@@]12C(=O)N(c3cccc(Cl)c3)C(=O)N1[C@H](c1ccc(F)cc1)[C@@H]1C(=O)N(C3CCCCC3)C(=O)[C@@H]12

(list continues)
GLA inh pH 4.5	miR-21 reporter	Rango complex inh	Rango release inh	SMILES
nt	1%	-3.1%	7%	COc1ccc(CCC(=O)Nc2ccc(C(=O)c3ccncc3)cc2)cc1
nt	8%	-3.3%	36%	C=CCn1c(SCC(=O)NCC2CCCO2)nc2scc(-c3ccccc3)c2c1=O (centres undefined)
nt	-1%	4.8%	6%	NC(N)=NS(=O)(=O)c1ccc(NC(=S)NC(=O)c2ccncc2)cc1
nt	19%	0.8%	-2%	CCCC(=O)NC(c1ccc(C(C)C)cc1)c1ccc2cccnc2c1O (centres undefined)
-2	-60%	-2.0%	-5%	O=C(Nc1ccccc1)C1Cc2ccccc2CN1C(=O)c1ccco1 (centres undefined)
nt	nt	-6.5%	-4%	Cc1cc(C(=O)N2CCN(S(=O)(=O)c3ccc(C)c(C)c3)CC2)no1
-5	-23%	5.3%	-10%	Cc1cc(Cl)ccc1OCC(=O)N1C(C)CCCC1C (centres undefined)
4	-2%	-1.7%	7%	Cc1cc(C)n2nc(C(=O)N/N=C/c3ccccc3C)nc2n1
nt	-42%	3.8%	3%	CC(=O)C1=C(O)C(=O)N(c2ccccn2)C1c1ccc(Cl)cc1 (centres undefined)
nt	nt	-0.3%	20%	CC(OC(=O)CNC(=O)c1ccco1)C(=O)Nc1ccc(Cl)cn1 (centres undefined)
-6	?	0.6%	3%	C[C@@]12CCC=C[C@H]1[C@H](c1ccc3ccccc3c1)N(Cc1ccccc1)C2=O
nt	nt	-1.5%	0%	O=C(COC(=O)c1cc(Cl)ccc1O)NCCC1=CCCCC1
-4	0%	0.1%	-10%	CC(C)(C)NC(=O)Cn1ccc(=N)c2ccccc21
4	-1%	-5.6%	0%	COc1ccc(CN2CCN(C(=O)c3cccs3)CC2)c(OC)c1OC
-7	-17%	0.2%	-6%	CC(C)C(=O)c1ccc(O)c(O)c1
nt	2%	?	-18%	Cn1c(C(=O)N2CCOCC2)cc2c(=O)n3ccccc3nc21
5	-18%	-1.6%	-10%	O=C(Cc1cccc2ccccc12)Nc1ccc2oc(-c3ccccc3)nc2c1
-2	-64%	1.2%	1%	CNc1cccc2c1C(=O)c1ccccc1C2=O
5	-3%	-0.9%	-5%	CC1(C)Cc2c(sc(NC(=O)C3CC(Cl)=CCC3C(=O)O)c2C#N)CO1 (centres undefined)
1	12%	-0.1%	3%	Nc1[nH]ncc1-c1ccc(Cl)cc1

Next records follow.
GLA inh pH 4.5	miR-21 reporter	Rango complex inh	Rango release inh	SMILES
?	-9%	-2.8%	-26%	COc1ccc(O)c(C(=O)c2cc(SCC(=O)O)c3nc4sc5c(c4c(=O)n3c2)CCCC5)c1
-9	7%	5.4%	24%	Cc1ccc(S(=O)(=O)N2CCCC2C(=O)Nc2nc3c(s2)CCCC3)cc1 (centres undefined)
nt	0%	3.6%	10%	Cc1ccc(NC(=O)NCCN2CCN(C(=O)Nc3ccc(C)cc3)CC2)cc1
2	-4%	-1.6%	24%	CCOC(=O)CSC(CC)C(=O)Nc1nnc(C(C)C)s1 (centres undefined)
-1	2%	-1.2%	26%	CC(C)[C@H](NC(=O)c1cccc(S(=O)(=O)N2CCOCC2)c1)C(=O)Nc1nccs1
3	-3%	-1.1%	-10%	CCN(Cc1ccccc1)C(=O)CSc1nc(C)cc2c1C(=O)OC2
0	-4%	0.2%	13%	CC(C)CCN1CN(S(=O)(=O)c2cccs2)c2nc3ccccc3nc21
nt	nt	-1.3%	8%	O=C(c1ccco1)N1CCN(C(=O)c2ccccc2OCc2ccc(Cl)cc2)CC1
nt	1%	-0.5%	-7%	COc1cccc(CC(NC(C)=O)C(=O)NC2CCN(C(=O)c3ccc(Cl)cc3)CC2)c1 (centres undefined)
-25	-6%	?	-8%	CCOC(=O)C1=C(CSc2nc3ccccc3s2)NC(=O)NC1c1cccc([N+](=O)[O-])c1 (centres undefined)
7	-11%	0.6%	-1%	Cc1ccc(NC(=O)c2oc3ccc(S(=O)(=O)N4CCOCC4)cc3c2C)cc1C
9	0%	-0.7%	-4%	COc1ccc(C=O)cc1COc1ccc(F)cc1F
nt	nt	-0.1%	-9%	O=C(NCC(=O)N1CCCCCCC1)c1ccccc1Cl
-20	-3%	?	-4%	O=C(O)c1nn2c(C(F)(F)F)cc(-c3cccs3)nc2c1Cl
10	-16%	2.6%	2%	Cc1nc2ccccc2nc1N1CCC(C)CC1
nt	nt	3.8%	17%	CCOc1cc2c(cc1OCC)CN(C(=O)c1cccc(S(=O)(=O)N3CCCC3)c1)CC2
-5	-25%	0.5%	3%	Cc1cccc(-n2c(CCCN3C(=O)c4ccccc4C3=O)nc3ccccc3c2=O)n1
nt	nt	0.4%	-9%	CCCCCCCCCCCCCC(=O)O
nt	8%	-0.1%	-6%	NC(=S)N=Nc1ccc(NN=C(N)N)cc1
-7	-7%	0.6%	4%	CCCSc1nnc(NC(=O)Nc2ccc(F)cc2)s1

Whole records, quoted from the list. Screens in order: GLA inh pH 4.5 | miR-21 reporter | Rango complex inh | Rango release inh
Cc1ccc(S(=O)(=O)N2CCCC2C(=O)Nc2nc3c(s2)CCCC3)cc1 (centres undefined) reads -9 | 7% | 5.4% | 24%
O=C(c1ccco1)N1CCN(C(=O)c2ccccc2OCc2ccc(Cl)cc2)CC1 reads nt | nt | -1.3% | 8%
COc1cccc(CC(NC(C)=O)C(=O)NC2CCN(C(=O)c3ccc(Cl)cc3)CC2)c1 (centres undefined) reads nt | 1% | -0.5% | -7%
Cc1ccc(NC(=O)c2oc3ccc(S(=O)(=O)N4CCOCC4)cc3c2C)cc1C reads 7 | -11% | 0.6% | -1%
CCOC(=O)CSC(CC)C(=O)Nc1nnc(C(C)C)s1 (centres undefined) reads 2 | -4% | -1.6% | 24%

Following part
GLA inh pH 4.5	miR-21 reporter	Rango complex inh	Rango release inh	SMILES
-1	-8%	-4.5%	25%	CC(=O)Nc1cc2c(cc1C(=O)c1ccccc1)OCCO2
3	-5%	3.0%	-17%	Cc1nnc(SCC2=C(C(=O)O)N3C(=O)C(NC(=O)Cn4ncc(Cl)c4C)C3SC2)s1 (centres undefined)
nt	nt	1.8%	1%	Cc1ccc(OCCC(=O)OCC(=O)NNC(=O)c2ccccc2)cc1
12	-13%	0.0%	6%	Cc1nc(S(=O)(=O)Cc2ccccc2)nc2c1CCC2
-8	8%	5.7%	6%	CN(CCC(=O)Nc1ccc(Br)cc1)Cc1ccccc1
-4	-5%	nt	nt	Cn1c(SCC(=O)N=Nc2c(O)[nH]c3ccccc23)nc2ccccc21
-24	-18%	-0.6%	-7%	O=C(Nc1cccc(OC(=O)c2ccco2)c1)c1ccco1
9	14%	3.6%	12%	c1ccc(-c2nnc(-c3ccccn3)nc2NC2CCCCC2)cc1
13	0%	5.6%	-1%	COc1ccccc1/C=N/n1c(N)c(S(=O)(=O)c2cccs2)c2nc3ccccc3nc21
2	-21%	-5.0%	28%	Cc1ccc(NC(=S)N2CCCC(O)C2)cc1 (centres undefined)
nt	1%	-0.1%	-5%	Cc1ccc(OCC(=O)NCCNC(=O)c2ccco2)cc1C
nt	nt	-0.5%	0%	O=C(NCC(=O)N1CCN(S(=O)(=O)c2ccccc2F)CC1)c1ccc2ccccc2c1
-8	6%	2.5%	-1%	CCOc1ccc(OCC)c(NC(=O)CSc2nc3c(c(=O)n(C)c(=O)n3C)n2C(C)C)c1
